# ClpP mod: qHTS Assay for Activators of ClpP; Potency, µM (doses to about 57.5 µM), inactives show at the top dose activity change, negative = active; actives 1.9% (n = 340,000); purified B. subtilis ClpP, FRET peptide cleavage, 20 min; ATP-dependent Clp protease proteolytic subunit (Bacillus subtilis (strain 168)), P80244; active = well fitted falling curve with a large enough effect; inconclusive = small, poorly fitted or top-dose-only effect; inactive = no such curve, though single readings can be large or run the other way; note: potency is the fitted concentration of half-maximal effect; the source files actives as falling curves though it sought activators and does not explain the sign; nearly all actives have a fitted effect of over 65% in size; many hits overshoot -100%
# Target sequence (P80244 whole entry, looked up): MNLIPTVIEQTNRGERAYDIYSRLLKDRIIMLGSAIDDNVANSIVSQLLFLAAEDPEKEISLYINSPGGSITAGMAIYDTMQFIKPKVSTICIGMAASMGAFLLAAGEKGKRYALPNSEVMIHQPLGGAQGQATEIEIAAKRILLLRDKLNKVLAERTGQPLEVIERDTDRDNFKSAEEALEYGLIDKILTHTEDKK
#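 Buffer: 100 mM Tris/HCl pH8, 100 mM KCl, 0.05% low protease BSA, 2.5% glycerol, 0.01% Tween-20. ClpP 10 microg/mL final; 20 min RT; delta FRET normalized to ADEP and DMSO controls.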
# TRPML1 blocker: qHTS for Inhibitors of the Human Mucolipin Transient Receptor Potential 1 (TRPML1) | Mucolipin-1 (Homo sapiens), Q9GZU1 | TRPML1-inducible cells, Ca2+ dye fluorescence, FDSS; hits give low values; inhibition of EC80 agonist-evoked calcium signal | activity change, negative = inhibition, % (no concentration beside the values) | actives 0.02% (n = 390,000) | AID 624415, 2012; in the data active means activity change below about -50%; inconclusive means about -30% to -50%; inactive means above about -30%;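 note: stimulus is agonist 54-4 at its EC80 concentration; % is set by controls: 0 for no effect and ±100 for the full control effect; compound concentration not given in the record; the text of the record puts the active cut at -80%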
# Target sequence (Q9GZU1 whole entry, looked up): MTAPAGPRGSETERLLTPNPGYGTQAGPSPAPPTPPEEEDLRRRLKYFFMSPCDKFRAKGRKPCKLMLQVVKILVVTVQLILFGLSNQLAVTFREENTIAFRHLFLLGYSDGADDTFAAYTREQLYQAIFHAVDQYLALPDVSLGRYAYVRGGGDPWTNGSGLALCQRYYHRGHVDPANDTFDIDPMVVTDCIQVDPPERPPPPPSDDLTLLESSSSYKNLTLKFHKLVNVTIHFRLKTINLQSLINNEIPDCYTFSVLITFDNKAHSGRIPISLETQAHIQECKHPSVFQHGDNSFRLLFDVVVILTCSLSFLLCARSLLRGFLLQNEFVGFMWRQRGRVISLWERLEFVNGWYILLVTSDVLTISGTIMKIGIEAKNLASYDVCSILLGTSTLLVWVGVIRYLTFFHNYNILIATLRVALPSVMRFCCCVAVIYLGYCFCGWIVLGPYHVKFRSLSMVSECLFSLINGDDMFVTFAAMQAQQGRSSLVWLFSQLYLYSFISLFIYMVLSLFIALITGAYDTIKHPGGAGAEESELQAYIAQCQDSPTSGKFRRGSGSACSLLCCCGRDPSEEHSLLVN
#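 Tet-induced TRPML1-DL cells loaded with Ca8 no-wash calcium dye were read kinetically on FDSS. Compound addition was followed by EC80 agonist 54-4 (4 uM final); inhibition was read over 110 s.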
# Sfp inh: qHTS Assay for Inhibitors of Bacillus subtilis Sfp phosphopantetheinyl transferase (PPTase); Biochemical Sfp PPTase activity, qHTS; AID 1490, 2009; 4'-phosphopantetheinyl transferase ffp (Bacillus subtilis), Q9F4F7; actives 3.5% (n = 310,000); Potency, µM, inactives show max response, negative = inhibition, actives largely listed as inhibitors; active = well fitted inhibition curve with a large enough effect; inconclusive = small, poorly fitted or top-dose-only effect, or another doubt; inactive = no such curve, though single readings can be large or run the other way;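 note: the enzyme is Sfp with the accession as filed and its product quenches rhodamine fluorescence; potency is the fitted concentration of half-maximal effect; 0% = enzyme reaction without inhibitor and -100% = no enzyme wells; top concentration of the series not given in the record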
#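 Buffer: 50 mM Hepes-Na pH 7.6, 10 mM MgCl2, 0.01% Nonidet P-40, 0.01% BSA. Enzyme 15 nM, pre-exposed to compound 15 min; substrates then added and fluorescence change tracked over 30 min.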
# TRPV1 PAM: HTS Assay for Compounds that Act as Potentiators of the Vanilloid Receptor 1; Transient receptor potential cation channel subfamily V member 1 (Homo sapiens), Q8NER1; TRPV1-expressing cells, Fluo-8 calcium influx, capsaicin EC20 potentiation; host cell line not named in the record; control for the full effect not named in the record; potentiation, % at 8.33 µM; actives 0.02% (n = 320,000); active means potentiation above 80%; inconclusive means 30% to 80%; inactive means below 30%; note: 0% is about no effect
#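 TRPV1-expressing cells were cultured overnight at 35.5C and loaded with Fluo-8 calcium dye for 40 to 90 min at room temperature. After a 10 s baseline, compound was added and calcium influx was read kinetically for 3 min (ex 480/em 520 nm).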
# PINK1 expr mod: A Quantitative High throughput Screen to Identify Chemical Modulators of PINK1 Expression; PINK1 immunofluorescence, high-content cytometry, 24 h; Potency, µM (top dose mostly 76.6 µM), without a hit: at the top dose activation (PINK1 increase), most hits filed as activators; actives 0.2% (n = 410,000); AID 624263, 2012; active = well fitted activation curve with a large enough effect; inconclusive = small, poorly fitted or top-dose-only effect; inactive = flat fitted curve, though single readings scatter; cell line not stated here;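 note: potency is the fitted concentration of half-maximal effect; % of control where 0% means no effect; nearly all actives have a fitted effect of over 65% in size; a mitochondrial uncoupler was the plate control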
#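 Stable cell line, 250 cells/well, 12 h attachment; compounds pinned at 5 concentrations, 24 h; CCCP control. Fixed with nuclear dye, primary antibodies 12 h at 10 degrees C, secondary plus cell stain; laser-scanning cytometer read.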
# TRPML1 ag: qHTS for Agonists of the Human Mucolipin Transient Receptor Potential 1 (TRPML1); Mucolipin-1 (Homo sapiens), Q9GZU1; TRPML1-expressing cells, Ca2+ dye fluorescence, FDSS; host cell line not named in the record; reference of the full effect not given here; activation, % (concentration not given with the values); actives 0.12% (n = 410,000); in the data active = activation above about 50%; inconclusive = about 30% to 50%; inactive = below about 30%; note: 0% is about no effect; the text of the record puts the active cut at 80%
#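 Tet-induced TRPML1-DL cells, 1,500 per well, cultured overnight, were loaded with a no-wash Ca2+ dye for 45–90 min. Calcium fluorescence was recorded on the FDSS for 110 s after compound addition, before the EC80 agonist (4 uM 54-4) was added.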
# Menin-MLL FL inh: qHTS Assay for Inhibitors Targeting the Menin-MLL Interaction in MLL Related Leukemias: Competition With Fluorescein Labeled MLL-derived Peptide; Fluorescence polarization, fluorescein-MLL peptide displacement from menin; FP activity change, % at 61.4 µM; 290,000 tested, under 10 active; AID 1766, 2009; inconclusive = falling polarisation curve, or a change in total fluorescence; inactive = total fluorescence flat and polarisation flat or rising; no compound was filed as active; the % refers to the polarisation; negative = inhibition;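 note: % of control where 0% means no effect; inhibitors lower the polarisation; unlabelled MLL peptide was the positive control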
# * = called active by the depositor; ? = inconclusive; nt = not tested or not shown; & = joins results of further samples; [ ] = remark or other dose.
Compound	Sfp inh	ClpP mod	TRPML1 blocker	TRPV1 PAM	TRPML1 ag	PINK1 expr mod	Menin-MLL FL inh
CCc1ccc(C(C)(O)C(CN2CCOCC2)c2ccccc2)cc1 (stereo not given)	-8%	nt	17	-1	-0.1	11%	0.2
O=C1CSC(c2cccnc2)N1CC1CC1 (stereo not given)	?	nt	-13	-8	0.5	-2.2%	2.3
C[C@@H](C(=O)O)[C@@H]1C[C@@]1(C)[C@@H](NC(=O)OCc1ccccc1)c1ccccc1	4%&18%	1.7%	20	6	-0.6	1.3%	9.6&-1.3
CCCCNC(=O)c1c(CSc2ccc(Cl)cc2)noc1C(=O)NCCC	nt	2.8%	6	15	0.8	1.2%	nt
COc1cc(Cl)ccc1Nc1ncc(C(=O)N2CCN(c3ccccc3OC)CC2)c2ccccc12	nt	4.3%	-4	nt	-0.9	-0.7%	nt
CCCn1c(C)cc(C(=O)CN2C(=O)c3ccccc3S2(=O)=O)c1C	nt	1.0%	0	nt	-0.9	0.0%	nt
Cn1ncc(Cl)c1C(=O)N1CCC(Cc2ccccc2)CC1	3%	-0.1%	-7	-4	-0.6	0.3%	nt
COC(=O)c1cn(-c2nc3ccccc3s2)nn1	nt	-22%	nt	nt	-0.5	1.1%	nt
O=C(COc1cc(O)c2c(=O)cc(-c3ccccc3)oc2c1)c1ccc(F)cc1	?	1.9%	-8	-6	-0.2	?	-0.6
Cc1ccc(/C=C/C(=O)c2ccccc2O)cc1	-17%	nt	-12	-11	2.5	-0.4%	-1.5
COC(=O)N1C(=O)[C@@](Cc2ccccc2)(c2ccccc2)N1C(=O)OC	-4%	2.1%	10	?	-0.7	2.1%	-3.9
CCCS(=O)(=O)c1c(S(=O)(=O)CCC)c2cc(CC)ccn2c1C(=O)c1ccc(OC)cc1	nt	-0.3%	-11	nt	-0.1	1.2%	nt
CCN(CC)C(=O)CSc1nnc(CNc2ccc(F)cc2)n1Cc1ccco1	-1%	-0.8%	33	11	-0.8	0.1%	2.4
CC(Cc1ccccc1)C(=O)N[C@@H](CO)Cc1ccccc1 (stereo not given in full)	2%&14%	-1.2%	-21	10	0.4	0.4%	-1.2&-2.3
N#Cc1c(N)c2ccccn2c1C(=O)c1ccc(Br)cc1	-4%	-1.6%	10	1	0.6	1.5%	1.8
N#Cc1ccccc1CSc1nc(N2CCCCC2)nc(N2CCCCC2)n1	4%	-1.7%	-9	-11	-0.1	-0.5%	1.8
O=C1c2cccc3c(Cl)ccc(c23)C(=O)N1O	8%	-7.4%	-8	-3	-0.3	nt	0.8
Cc1c(C(=O)N2CCC(C)CC2)c(S(=O)(=O)NCc2ccc(Br)cc2)c(C)n1C	nt	2.4%	3	nt	1.6	0.6%	nt
O=C1NC(c2ccc(-c3ccccc3[N+](=O)[O-])o2)C(C(=O)c2ccc(F)cc2)C(O)(C(F)(F)F)N1 (stereo not given)	-12%	2.2%	5	0	1.7	1.2%	5.2
CCC(=O)Nc1nnc(SCC(=O)Nc2ccc3c(c2)OCO3)s1	22%	2.7%	?	7	0.9	-1.1%	nt
Cc1cc(C)cc(C(=O)NCC(=O)OCN2C(=O)c3ccccc3C2=O)c1	nt	1.2%	-16	7	1.0	0.0%	nt
CCOC(=O)C1(C)CCN1C(=O)c1ccc(C(C)(C)C)cc1 (stereo not given)	nt	2.2%	nt	nt	-0.5	0.7%	nt
CC(C)CN1CCCC2(CCN(C(=O)c3cccn3C)CC2)C1	2%	nt	nt	nt	nt	0.8%	2.2
O=C(c1ccccc1)c1nc2c(n1O)CCCCC2	3%	1.1%	-13	-4	-0.4	0.0%	-1.4
COc1ccc([C@H]2CC(=O)C[C@@H](CCn3cc(C(C)C)nn3)O2)cc1	nt	1.8%	nt	nt	-0.7	0.4%	nt
Cc1c(CN2CCC(CO)(CCOc3ccccc3)CC2)[nH]c2c(Cl)cccc12	-23%	-2.7%	nt	22	nt	-1.4%	0.0
CCNC(=O)COC(=O)/C=C/c1ccccc1[N+](=O)[O-]	6%	0.1%	-6	14	-0.1	0.7%	4.3
CCCN(CCC)C1=N/C(=C\c2ccco2)C(=O)N1c1ccccc1	35µM*	-5.0%	-7	-3	0.6	0.0%	?
Cn1c(=O)cc(SCC(=O)NCc2ccco2)c2ccccc21	19%	-15%	11	10	0.2	4.5%	-7.0
Cc1ccc(/C=C/S(=O)(=O)Nc2ccc(C)cc2)cc1	0%	nt	-8	-1	-0.6	1.5%	1.8
COC(=O)[C@]1(C)N[C@H](CN(C)C(=O)NC(C)C)[C@@H]2C(=O)N(C)C(=O)[C@@H]21	nt	1.5%	0	nt	-0.9	-0.6%	nt
S=c1[nH]nc(-c2ccccn2)n1/N=C/c1ccc(-c2ccccc2Br)o1	-15%	2.0%	-4	-4	3.2	-0.2%	-0.3
Cc1ccc(C2=NC(C(F)(F)F)(C(F)(F)F)c3c(n(-c4ccc(F)cc4)c(=O)[nH]c3=O)N2)cc1	19%	1.5%	-17	3	0.0	40µM*	2.6
CCN(c1ccccc1)S(=O)(=O)c1ccc(OC)c(NC(=O)Cc2ccc(OC)c(OC)c2)c1	nt	-0.1%	-1	20	2.9	5.1%	nt
Cc1cccc(-c2nc(C#N)c(NCC3CCCO3)o2)c1 (stereo not given)	5%	nt	0	-18	0.5	2.4%	-1.6
CCc1cccc(C)c1NC(=O)c1cc(-c2ccncc2)nc2ccccc12	nt	-3.7%	-13	-5	0.1	2.2%	nt
CC[C@]12c3[nH]c4cc(CCC(=O)N(C)C)ccc4c3CCN1C(=O)[C@@H](CC(=O)NCc1ccco1)C[C@@H]2C(=O)N1CCN(C(=O)C2CC2)CC1	nt	-12%	12	nt	0.0	0.1%	nt
Cc1c(NC(=O)C(C)N2C(=O)C3CCCCC3C2=O)c(=O)n(-c2ccccc2)n1C (stereo not given)	7%	nt	0	22	-0.5	1.6%	0.0
O=C(CN1C(=O)/C(=C/c2ccccc2)SC1=S)Nc1ncc(Cc2ccccc2)s1	-6%	?	1	6	0.9	7.4%	8.1
Cc1ccc(S(=O)(=O)N2CCCC(C(=O)NCCc3ccccc3)C2)cc1 (stereo not given)	21%	nt	22	2	0.6	-0.6%	4.6
COc1ccccc1N1CCN(C(=O)CSc2nc3ncnc(N)c3[nH]2)CC1	-2%	-3.4%	-4	7	-0.3	nt	5.3
CN(c1cccc(NC(=O)CN(c2cccc(F)c2)S(C)(=O)=O)c1)S(C)(=O)=O	26%	-0.4%	10	10	0.1	1.6%	4.3
C/C(=N\NC(=O)c1nnn(-c2nonc2N)c1CSc1ccc(Cl)cc1)c1cccnc1	-7%	-1.8%	-2	4	-0.2	-1.2%	-5.8
Cc1ccc2c(c1)N(C(=O)CCC(=O)NCc1cccc(F)c1)CCO2	11%	0.5%	13	6	-0.2	0.7%	-1.4
S=C(NCCc1ccccc1)Nc1ccccn1	-9%	-3.0%	0	-4	1.8	-1.0%	12
CCCOP(=O)(c1ccc(N(C)C)cc1)C(O)c1ccc(Cl)cc1 (stereo not given)	-20%	-2.3%	7	6	-1.2	-1.4%	3.6
CCCCc1nn2c(=O)cc(COC(=O)c3ccc4c(c3)OCO4)nc2s1	nt	-1.2%	-4	nt	-0.3	0.9%	nt
Cc1cc(Cl)ccc1NC(=O)CN(C)C1=NS(=O)(=O)c2ccccc21	nt	-1.8%	-16	0	-0.1	1.3%	nt
Cc1nc(Cl)c(C(=O)NCc2ccccc2)c(C)c1Cl	16%	-2.0%	8	-13	-0.4	9.1%	0.1
CC(=O)c1ccc(NC(=O)CN2C(=O)CCc3cc(S(=O)(=O)N4CCC(C)CC4)ccc32)cc1	nt	0.8%	3	nt	-0.6	1.7%	nt

# Next structures follow.
Compound	Sfp inh	ClpP mod	TRPML1 blocker	TRPV1 PAM	TRPML1 ag	PINK1 expr mod	Menin-MLL FL inh
O=C(Nc1ccc(Cl)cc1C(=O)N1CCOCC1)c1ccco1	8%	1.8%	0	0	0.5	6.4%[38.3 µM]	-2.9
COc1cccc(OCCNC(=O)c2cc(OC)c(OC)c(OC)c2)c1	17%	nt	-12	?	2.4	0.1%	0.9
O=[N+]([O-])c1ccccc1S(=O)(=O)N/C(=N/S(=O)(=O)c1ccccc1)c1ccccc1	nt	nt	29	nt	0.5	0.3%	nt
COc1ccc(-c2cc(C(=O)OCC(=O)NC3CC3)c3ccccc3n2)cc1	nt	4.2%	17	-6	0.1	5.3%	nt
CC1CCCN(CCS(=O)(=O)c2ccccc2)C1 (stereo not given)	nt	nt	-26	nt	1.3	-0.2%	nt
COC(=O)C1=C(C)N(Cc2ccccc2)C(=S)N[C@H]1c1ccccc1	-8%&-11%	0.7%	-22	?	65*	0.7%	1.2&-7.4
COC(=O)COc1cc(Br)c(/C=C2/SC(=O)N(CC(=O)N3CCCC3)C2=O)cc1OC	-2%	-1.3%	9	7	1.3	-3.5%	2.9
COc1ccc(CNc2ccc3cc(S(=O)(=O)N4CCCCC4)ccc3n2)cc1	nt	4.6%	-17	nt	2.1	2.4%	nt
COc1ccccc1C(=O)NCc1n[nH]c(=S)n1Cc1ccccc1	12%	1.6%	-4	-8	1.0	0.0%	1.4
CCOc1ccc(CCNC(=O)COC(=O)/C=C/c2ccc(C)o2)cc1OCC	56µM*	-2.9%	5	12	1.2	-0.2%	nt
O=C(O)c1cccc2c1C(=O)N(Cc1ccncc1)C2	-8%	1.6%	-16	-1	-0.5	3.4%	2.2
CCOC(=O)c1sc2nc3n(c(=O)c2c1C)CCC3	-5%	nt	-9	2	0.1	-0.1%	2.2
COc1ccccc1OCC(=O)Nc1nc(-c2ccc(S(=O)(=O)N3CCOCC3)cc2)cs1	nt	-11%	3	nt	1.4	0.2%	nt

# High-throughput results deposited in PubChem BioAssay by National Center for Advancing Translational Sciences (NCATS).
